Sa RN4220 lethal: growth inhibition of S. aureus RN4220, primary screen, OD600; 16 h; inhibition, % (concentration not given with the values); 0.33% of 330,000 active;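 active = z-score of -3 or lower and OD600 up to 0.18 on both plates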;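 note: plate controls were untreated cells for no effect and reference antibiotic for full effect; stock transfer was 100 nL into about 80 µL; one replicate is shown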
Mtb hypoxia rep: PubChem AID 1159583. M. tuberculosis hypoxia-regulated fluorescent reporter, fluorescence. fluorescence inhibition, % (no concentration beside the values). 0.1% of 300,000 active;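 active = 35 to 45% if threefold the growth effect, above 45% if 1.5-fold the growth effect; inactive = the rest, general growth blockers included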;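 note: wells of about 50 µL received 100 nL stock; 0% = vehicle wells and 100% = reference inhibitor wells; whole bacteria with a GFP reporter of the hypoxia response; strong numbers were not always called active; many hits fall short of the cut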
Bead autofluor: flagged as autofluorescent in microsphere protease counterscreen | compound autofluorescence counterscreen, microsphere flow cytometry; stronger effect = higher value | fluorescence intensity (no concentration beside the values) | 3.1% of 360,000 active;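 active = at least 3 SD above the mean of all compounds, about 16000 in these data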;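 note: 100 nL of 1 mM stock went into each well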
BJeLR viability: MLPCN primary cell-based screen for lethality selective to Ras in HRASV12 cells. inhibition, % (no concentration beside the values). 0.17% of 300,000 active. AID 1554, 2009. BJeLR (HRASV12) viability, CellTiter-Glo ATP luminescence, 48 h; reference of the scale not given here;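 active = replicate mean above 50%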;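 note: 50 nL library stock added to about 25 µL; numbers are from one replicate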
Sa ugtP lethal: growth inhibition of ugtP-null S. aureus, primary screen, RN4220 ugtP deletion, OD600; growth inhibition, % (concentration not given with the values); AID 1259309, 2017; 16 h; some inactives read as strong as hits; 0.54% of 330,000 active;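 active = z-score under -3 and OD600 up to 0.15 on both plates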;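 note: plate controls were untreated wells for no effect and antibiotic for full effect; wells of about 80 µL received 100 nL stock; the first replicate is given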
PrP UTR inh: inhibition of PrP 5' UTR reporter expression. 0.35% of 340,000 active. AID 488862, 2010. cell-based PrP 5' UTR mRNA reporter, plate reader. inhibition, % (test concentration not listed);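 active = every replicate at 50% or more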;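 note: 0 = median of the neutral control wells; tested in H4 reporter cells; numbers are from one replicate; inactives centre near -14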
Mtb hypoxia rep growth: also measured in Mtb hypoxia rep; calls as there; growth inhibition, %; measured here: M. tuberculosis growth (absorbance);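 0% = vehicle and 100% = reference antibiotic; read after six days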
The depositor's hits bear a star; . = not tested or not shown; & = joins results of further samples. Hits appear at their usual frequency. Share with any hit: about 3.9%.

SMILES	Sa RN4220 lethal	Mtb hypoxia rep	Mtb hypoxia rep growth	Bead autofluor	BJeLR viability	Sa ugtP lethal	PrP UTR inh
Cc1cccc(C(=O)NC2CCN(C(=S)NCc3ccco3)CC2)c1	-4.9	1	-9	9214	15	0	-28
C#C[C@]1(O)CC[C@H]2[C@@H]3CCc4cc(O)ccc4[C@H]3CC[C@@]21C	.	.	.	5668	4	.	-12
CN1CCN(C(=O)CNC(=O)C23CC4CC(CC(C4)C2)C3)CC1	4.6	5	2	2872	.	11	-11
NC(=S)N/N=C/c1ccc2c(c1)OCCO2	.	.	.	3197	5	.	-97
COc1ccc(OC)c(NC(=O)CSc2nnnn2C)c1	1.3	0	3	4404	1	12	-7
COc1ccc(C(NC(=O)c2ccco2)c2ccc(OC)c(OC)c2)cc1 (stereo not drawn)	0.8	.	.	2298	.	7	-10
O=C(O)c1cc(S(=O)(=O)N2CCCCCC2)c(Cl)cc1Cl	-3.8	-6	-9	8254	-7	-2	-22
Fc1ccc(C2=CC(c3ccco3)n3nnnc3N2)cc1 (stereo not drawn)	8.0	.	.	.	-22	-9	.
CCC1(c2ccc(Cl)cc2)NC(=O)N(CC(=O)NC2CCCCCC2)C1=O (stereo not drawn)	-3.9	-1	-3	5200	.	1	-18
O=C(NNc1ccccc1F)C1CCC1	3.0	-4	-2	4335	3	5	-5
COc1ccc(OC)c(-c2cc(C3CCN(c4ncccc4[N+](=O)[O-])CC3)[nH]n2)c1	7.3	.	.	4672	-3	-8	-4
Oc1ccc(/C=N/NC(=S)Nc2cccnc2)cc1	.	.	.	4580	7	.	-22
COC(=O)c1ccccc1NC(=O)NCCc1ccccc1OC	.	.	.	4271	0	.	-26
CN1CCN(CC#CCn2c3ccccc3c3ccccc32)CC1	-0.6	10	2	11641	2	17	-37
CC(=O)N1Cc2ccccc2CC1C(=O)N1CCN(c2ccccc2)CC1 (stereo not drawn)	7.4	13	11	3991	-2	7	-19
O=C(NCc1ccco1)[C@@H]1CCCN1C(=O)c1cccs1	2.9	.	.	4813	-4	7	-37
Cc1cc(C)c2[nH]c(=O)c(CN(Cc3cccs3)C(=S)NCc3ccco3)cc2c1	1.2	1	7	2241	-7	-23	-21
Cc1cc(-c2nn(C)c(=O)c3ccccc23)cc(C)c1O	-1.6	-8	1	6149	-2	-7	-12
C=CCn1c(SCC(=O)NC2CCCCC2)nnc1C1CCCCC1	-0.5	.	.	2145	2	7	-20
CC(C)CN(C(=O)COC(=O)c1ccccc1SCC(=O)N1CCCC1)C1CCS(=O)(=O)C1 (stereo not drawn)	0.6	-3	2	3083	.	-3	10
COc1cccc(C(=O)CN2C3=NCCCN3c3ccccc32)c1	-0.6	.	.	.	8	-5	-33
COc1ccc(-c2csc(CCN3N=C(C)CC3=O)n2)cc1	-0.9	2	2	4257	3	10	-14
N#C/C(=C\c1cn(-c2ccccc2)nc1-c1cc2ccccc2o1)c1nc2ccccc2[nH]1	.	.	.	2246	17	.	5
CCOC(=O)CN(C(=O)Cn1nnc(-c2ccc(OC)cc2)n1)C(C(=O)NC1CCCC1)c1ccc(F)cc1 (stereo not drawn)	1.2	-2	2	6997	13	-3	-20
Cn1nnnc1SCc1ccccc1[N+](=O)[O-]	3.4	-6	10	9222	-4	1	-2
COc1ccc(CC(=O)OCn2nnc3ccccc3c2=O)cc1	-3.4	.	.	3158	0	-6	-9
COc1cc(NC(=O)c2cccs2)c(OC)cc1NC(=O)CCC(=O)Nc1ccc(C)cc1	6.0	10	-2	6145	-3	4	-13
Cc1cccc(C)c1NC(=O)CN(C)C(=O)Cn1c(=O)cnc2ccccc21	3.2	0	-2	5626	-8	11	2
Cc1nnc(SCC(=O)N2CCOCC2)[nH]c1=O	3.0	7	4	8920	13	-2	-33
CCOC(=O)C1CCN(C(C)C(=O)c2c[nH]c3ccccc23)CC1 (stereo not drawn)	2.3	0	-4	3200	5	7	-20
O=S1(=O)C[C@@H](N2CCOCC2)[C@H](N2CCOCC2)C1	-0.3	.	.	3539	-8	-4	-19
C/C(=N\NC(=O)c1cccc(O)c1)c1cccc(NC(=O)c2ccc(F)cc2)c1	.	.	.	5050	-6	.	-20
Cc1occc(=O)c1OCc1c(Cl)cccc1Cl	3.4	0	0	3162	7	-2	-2
O=C(CN(C(=O)CNS(=O)(=O)c1ccccc1)c1ccc(Cl)cc1)NCC1CCCO1 (stereo not drawn)	1.1	13	10	3675	-11	3	-15
O=C(O)c1cc(-c2ccc(Br)s2)nc2ccccc12	12	9	3	3489	2	-2	-16
Cc1ccc(S(=O)(=O)Nc2c(C)n(C)n(-c3ccccc3)c2=O)cc1	7.1&5.4	3&9	1&21	3867&12506	-7&-8	1&4	-8&-16
Cc1ccc(NCC(=O)Nc2cccc(S(=O)(=O)N(C)C)c2)cc1S(=O)(=O)N1CCCCCC1	1.3	10	3	7071	16	-2	-28
COc1ccc(-n2c(=O)c(CCC(=O)N3CCC(C)CC3)nc3ccccc32)cc1	2.1	5	6	3949	.	0	-17
CCC(C)(C)NC(=O)C(c1cccs1)N(C(=O)c1ccn[nH]1)c1cccc(OC)c1 (stereo not drawn)	6.9	14	5	2648	-4	5	-61
COc1ccc(C)c2sc(N(CCCN(C)C)C(=O)CS(=O)(=O)c3ccc(F)cc3)nc12	1.2	2	1	6141	10	3	5
Cc1ccc(S(=O)(=O)N2C(c3cccc(Cl)c3)CC=C(C(=O)O)C2c2ccccc2)cc1 (stereo not drawn)	22	13	4	.	.	36	.
Cn1cc(SCC(=O)N2CCOCC2)c2ccccc21	-10	2	10	5525	-3	-6	-33
COc1cc(C(=O)NNC(=S)NC(=O)c2ccc(Cl)cc2)cc(OC)c1OC	48	-5	-4	2406	2	13	-11
CN(C(=O)c1cccc(NC(=O)Cc2cccc(NC(=O)C3CCN(C(=O)C4CCCC4)CC3)c2)c1)C1CC1	0.4	-3	3	3901	.	1	-22
C/C(Cc1ccccc1)=N\NC(=O)CNC(=O)c1ccccc1F	.	.	.	4336	-1	.	-3
Cc1cccc(COCC(CC(C)C)N2CCN(C(=O)c3ccc(C(F)(F)F)cc3)CCC2=O)c1 (stereo not drawn)	0.0	10	7	3560	0	-19	-56
Cc1cccc2cncc(OCc3nnc(SC(F)F)n3C)c12	-0.1	-6	0	4799	-5	-6	-17
Cc1nn(CCC(=O)Nc2cccc(C#N)c2)c(C)c1S(=O)(=O)N1CCCCC1	4.6	15	-1	5980	-7	0	-21
CCOC(=O)c1[nH]c(C)c(C(=O)NCc2cccnc2)c1C	1.9	.	.	5979	0	-1	-8
Cc1cc(Oc2ccc(=O)n(C)n2)nc(Oc2ccc(=O)[nH]n2)n1	6.8	10	6	2915	-3	0	-9
CCOC(=O)C1=C(COC(=O)CCNS(=O)(=O)c2ccc(C)c(C)c2)NC(=O)NC1C (stereo not drawn)	1.0	12	10	3181	.	3	-21
CCCCSCCCNC(=O)c1cn(CC)c2ccc(S(=O)(=O)N3CCOCC3)cc2c1=O	6.8	4	-2	5693	-5	7	-23
Cc1ccc2c(c1)C1CN(C)CCC1N2C(=O)COc1ccccc1F (stereo not drawn)	-0.9	-3	12	5165	7	-2	-15
CN(C)S(=O)(=O)N(Cc1ccc(Br)cc1)c1ccccc1	2.7	8	10	11382	21	5	-1
COc1cc(/C=C/c2cccc[n+]2C)ccc1OCC(=O)Nc1cccc(Cl)c1	-2.7	2	8	3352	1	4	-18
CN1CCN(CC(C)(C)NS(=O)(=O)c2ccccc2)CC1	1.8	5	14	3502	.	2	-2
COc1cc(NC(=S)NNC(=O)CC(C)C)c(OC)cc1Cl	6.8	-1	1	2550	-2	-4	-25
Cc1csc(CN(C)C(=O)CC2C(=O)NCCN2CC(C)(C)C)n1 (stereo not drawn)	-5.1	-1	-6	4168	5	-4	-15
N=c1ccn(O)cc1CCc1ccccc1	2.7	17	14	3722	.	3	-17
O=C(NCCc1ccccc1)c1c[nH]c2c(F)cccc2c1=O	2.2	6	3	3542	-12	-3	-43
The results go on:
SMILES	Sa RN4220 lethal	Mtb hypoxia rep	Mtb hypoxia rep growth	Bead autofluor	BJeLR viability	Sa ugtP lethal	PrP UTR inh
Cn1c(=S)oc2ccccc21	5.0	-1	-1	5513	-2	4	-12
O=C(OCC(=O)N1CCCC1=O)c1nc(Cl)c(Cl)c(Cl)c1Cl	4.4	-1	6	5148	11	-2	-16
COc1ccc(OC)c(Nc2nc(-c3sc(NC(=O)C(C)(C)C)nc3C)cs2)c1	-1.0	9	1	2755	2	-42	-12
Cc1onc(-c2c(F)cccc2Cl)c1C(=O)NC1=NCCS1	2.9	3	7	7911	1	-1	-9
CN(C)C(=O)CSc1nc2ccc(C(=O)c3ccccc3)cc2[nH]1	3.3	-1	-1	3471	29	0	-14
COCC(=O)N(Cc1cc2cc(C)ccc2[nH]c1=O)c1ccccc1	2.8	-5	8	4003	0	2	-14
Cc1cccc(N=Nc2ccc(O)c3ncccc23)c1	53	6	3	1550	28	64	21
CC(C)(C)c1ccccc1OCC(=O)NCCC(=O)O	4.3	5	3	24308*	-4	-1	-14
CC(C)(C)c1ccc(C(=O)NCC(=O)N2CCCCCC2)cc1	0.4	16	8	3677	4	9	-35
O=c1[nH]c(CSc2nnc(-c3ccccc3)n2C2CCCCC2)nc2ccccc12	-0.5	-7	11	22043*	-10	-8	0
O=c1[nH]c(CSc2nc(-c3ccccc3)cs2)nc2ccccc12	2.3	7	-3	2684	2	-18	-11
CN(C)CC(=O)Nc1ccc(S(N)(=O)=O)cc1	0.1	4	0	9512	0	10	-31
COC(=O)C1(C)NC(c2ccccc2F)C2C(=O)N(c3ccccc3)C(=O)C21 (stereo not drawn)	2.8	-6	-10	3388	-10	1	-4
Cc1noc(C)c1S(=O)(=O)NCCN1CCN(c2ccccc2)CC1	2.3	.	.	4665	3	4	1
C/C(N)=C(\C#N)C(=O)NCCc1ccccn1	1.1	18	3	5157	-7	5	-19

Given as comma-separated lines: entries from further up.
mol,Sa RN4220 lethal,Mtb hypoxia rep,Mtb hypoxia rep growth,Bead autofluor,BJeLR viability,Sa ugtP lethal,PrP UTR inh
Cc1cc(-c2nn(C)c(=O)c3ccccc23)cc(C)c1O,-1.6,-8,1,6149,-2,-7,-12
C=CCn1c(SCC(=O)NC2CCCCC2)nnc1C1CCCCC1,-0.5,.,.,2145,2,7,-20

Given with bars between the fields: five of the compounds above.
Molecule | Sa RN4220 lethal | Mtb hypoxia rep | Mtb hypoxia rep growth | Bead autofluor | BJeLR viability | Sa ugtP lethal | PrP UTR inh
CN(C)C(=O)CSc1nc2ccc(C(=O)c3ccccc3)cc2[nH]1 | 3.3 | -1 | -1 | 3471 | 29 | 0 | -14
COCC(=O)N(Cc1cc2cc(C)ccc2[nH]c1=O)c1ccccc1 | 2.8 | -5 | 8 | 4003 | 0 | 2 | -14
Cc1cccc(N=Nc2ccc(O)c3ncccc23)c1 | 53 | 6 | 3 | 1550 | 28 | 64 | 21
CC(C)(C)c1ccccc1OCC(=O)NCCC(=O)O | 4.3 | 5 | 3 | 24308* | -4 | -1 | -14
CC(C)(C)c1ccc(C(=O)NCC(=O)N2CCCCCC2)cc1 | 0.4 | 16 | 8 | 3677 | 4 | 9 | -35
